# MgrA-DNA mod – S. aureus MgrA-DNA binding modulation; inhibition, %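 (about 10 µg/mL by stock and volumes)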; fluorescence polarization; 84,000 compounds, 0.13% hits; AID 602314;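 active means above 50% in either of two replicates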;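 further: 0% = protein plus DNA without compound and 100% = DNA alone without protein; higher means less MgrA bound to DNA so lower polarization; one replicate is shown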
# S aureus helic – blocks Staphylococcus aureus DNA helicase | inhibition, %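 (tested at about 80 µM)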 | AID 485395 | purified S. aureus helicase, fluorescence unwinding assay; about half of the hits fall short of the stated cut | 120,000 compounds, 0.05% hits;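 active means both duplicates at 50% or more, or one of them with a favoured structure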;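 further: 0% = mean of negative control wells and 100% = mean of positive control wells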
# Numbers without * were called inactive; . = not tested or not shown; & = joins results of further samples. Not all compounds are listed (hit frequency here may not be typical).
SMILES	S aureus helic	MgrA-DNA mod
O=C(CSC1=Nc2ccccc2CS1)c1ccc[nH]1	-10	.
Cc1cc(OC(=O)c2cccs2)cc(OC(=O)c2cccs2)c1	7	12
CCOC(=O)C1=C(CC)Nc2ccccc2N=C1NC(=O)C1CCCO1 (stereo unspecified)	-8	.
CN1CC(c2nc3ccccc3[nH]2)CC1=O (stereo unspecified)	-2	-3.5
Cc1ccc(NC(=O)CC#N)cc1	-21	.
COc1ccc(S(=O)(=O)N2CCN(C(=O)c3ccco3)CC2)cc1OC	-3	4.5
COc1cc(OC)cc(C(=O)Nc2cccc(-c3nc4cc(C)cc(C)c4o3)c2C)c1	-19	.
CCC1CCCCN1C(=O)CSc1nc2c(c(=O)[nH]1)CCC2 (stereo unspecified)	-2	.
CCCc1cc(=O)[nH]c(SCc2nc(N)nc(Nc3ccccc3C)n2)n1	-10	.
CC1CC(=O)CCN1C(=O)c1ccccc1 (stereo unspecified)	-7	4.1
COC(=O)Cn1cnc2c(cnn2-c2ccccc2)c1=O	-1	.
CCOC(=O)N1CCN(C(=O)COC(=O)c2cccc(S(C)(=O)=O)c2)CC1	-2	.
CCOC(=O)c1c[nH]c2c(Cl)cc(Br)cc2c1=O	.	-2.3
Cc1ccc(/C=C/C(=O)O)cc1S(=O)(=O)NCCO	7	.
O=C(Nc1ccc2nc(N3CCOCC3)sc2c1)c1cncn1-c1ccccc1	4	.

# 5 of the entries above in order of the MgrA-DNA mod value, highest first.
mol | MgrA-DNA mod
Cc1cc(OC(=O)c2cccs2)cc(OC(=O)c2cccs2)c1 | 12
COc1ccc(S(=O)(=O)N2CCN(C(=O)c3ccco3)CC2)cc1OC | 4.5
CC1CC(=O)CCN1C(=O)c1ccccc1 (stereo unspecified) | 4.1
CCOC(=O)c1c[nH]c2c(Cl)cc(Br)cc2c1=O | -2.3
CN1CC(c2nc3ccccc3[nH]2)CC1=O (stereo unspecified) | -3.5

# The list continues.
SMILES	S aureus helic	MgrA-DNA mod
O=C(NCN1C(=O)C2C3C=CC(C3)C2C1=O)Nc1cccnc1 (stereo unspecified)	-1	0.9
CCOc1ccc(-c2cc(CCCC(=O)Nc3cc(Cl)ccc3O)no2)cc1	12	.
O=C(NCCc1c[nH]c2ccccc12)c1ccco1	11	.
COC(=O)c1cc(Nc2ncnc3c2nc2n3CCCCC2)cc(C(=O)OC)c1	31	.
CCN(C(=O)c1c(N)cnn1C)c1ccccc1	10	-0.3
O=S(=O)(Oc1cc(Cl)cc(Cl)c1)c1ccc(Cl)cc1	.	2.7
O=C(CO)n1c2ccccc2c2ccccc21	15	-3.9
CS(=O)(=O)c1ccc(-c2csc(-c3cccs3)n2)cc1	15	.
COc1ccc2nc(C)cc(SCC(=O)c3ccc(Cl)cc3)c2c1	3	-3.5
Cn1c(=O)c2c(nc(NCCO)n2Cc2ccc(F)cc2)n(C)c1=O	3	.
c1ccc(-c2nc(-c3ccc(-c4csnn4)cc3)no2)cc1	.	-1.8
CCOC(=O)c1ccc(NC(=O)CCC(=O)N2CC(C)Oc3ccc(C)cc32)cc1 (stereo unspecified)	10	.
O=C(O)COCC(=O)N1CC(=O)Nc2ccccc21	6	-7.5
OCn1nc(-c2ccc(Cl)cc2Cl)oc1=S	10	-1.9
Cc1cc2c3c(c1)C1C=CCC1C(c1cccc([N+](=O)[O-])c1)N3CC1CC=CC21 (stereo unspecified)	.	-0.4

SMILES	S aureus helic	MgrA-DNA mod
CCC(=O)N1c2ccc(Cl)cc2C2C=CCC2C1c1cccc2ccccc12 (stereo unspecified)	.	2.9
NC1=NC(=O)C(CC(=O)Nc2ccccc2SC(F)(F)F)S1 (stereo unspecified)	-34	.
COc1ccc(-c2noc(COC(=O)/C(=C/c3ccccc3OC)c3ccccc3)n2)c(OC)c1	-3	.
S=c1nc(-c2cccc(Br)c2)[nH][nH]1	8	-3.8
CC(C)(O)C(=O)/C=C/c1ccccc1	-3	-0.7
CC(C)OC(=O)COc1ccc2c(=O)c(-c3ccc(Cl)cc3)coc2c1	8	.
OC(Cc1cccnc1)(c1ccccc1)c1ccccc1	.	-1.5
CN(C)CCCSc1nc2ccccc2s1	-2	-4.9
Cc1ccc(CN(Cc2ccco2)C(=S)NCC(=O)O)cc1	19	.
OCCN(Cc1ccccc1)Cc1ccccc1O	6	-2.6
Cc1noc(C)c1S(=O)(=O)N(CC(=O)N1CCCCCC1)c1ccc(C(C)C)cc1	-12	.
O=C(OCC(=O)N1CCCc2ccccc21)c1ccccc1O	-1	.
O=C(O)c1ccccc1Cc1nc2c(oc3ccccc32)c(=O)[nH]1	11	.
COc1cccc(/C=C2\CC/C(=C\c3cccc(OC)c3)C2=O)c1	5	3.7
O=C(COc1ccccc1)n1nc(-c2ccccc2)nc1NCc1cccs1	1	-0.2

SMILES	S aureus helic	MgrA-DNA mod
COC(=O)C12CCCC(C(=O)O)(CCC1)C2	8	-1.1
CCc1cc2c(=O)c(-c3nc4ccccc4s3)c(C(F)(F)F)oc2cc1O	1	1.0
O=C(CCSCc1ccc(Cl)cc1)NC1CCCC1	-15	.
Cc1ccccc1N1CCN(C2=NC(=O)/C(=C\c3cccs3)S2)CC1	11	.
Cn1nc(-c2ccc(C(N)=O)cc2)c2ccccc2c1=O	3	-1.0
O=C(CCSCc1cnn(-c2ccccc2)c1-n1cccc1)NC1CCCC1	3	-0.8
c1ccc(OCCn2c(CN3CCCCC3)nc3ccccc32)cc1	20	.
O=C(O)CC(NS(=O)(=O)c1ccc(Cl)cc1)c1ccco1 (stereo unspecified)	1	.
Cc1cc(C)n(CCOc2ccc(Br)cc2)n1	5	0.4
COC1CCCCC1Nc1ccccc1 (stereo unspecified)	5	-1.3
CC(C)(C)c1cc(Cl)cc(C(=O)c2ccccc2)c1	1	-1.8
COc1ccc(-c2[nH]ncc2-c2ccccc2)c(O)c1C	12	.
O=C(OCC(=O)N1CCCCC1)c1ccccc1OCc1ccc(F)cc1	10	0.1
COC(CNC(=O)c1ccc(N2CCCC2=O)cc1)OC	-39	.
O=C1COc2ccc(C(=O)COC(=O)c3cccs3)cc2N1	6	.

SMILES	S aureus helic	MgrA-DNA mod
COC(=O)CSc1nnc(CNc2ccc(Cl)cc2)n1Cc1ccccc1	13	1.5
Cc1ccc(C(=O)Nc2cnc3ccccn3c2=O)cc1	30	.
COc1ccccc1C1C(C(=O)Nc2ccccc2F)=C(C)NC2=C1C(=O)CCC2 (stereo unspecified)	10	1.3
Cc1oc2ncn(C)c(=O)c2c1C(=O)OCc1ccc(C#N)cc1	9	.
Cc1ccc(C(=O)c2cc3c(cc2Br)OCCO3)cc1	.	2.8
Cc1nc(-c2ccc3ccccc3n2)cn1Cc1ccc(F)cc1	.	-2.5
COc1cc(-c2nnc(SCc3c(F)cccc3Cl)o2)cc(OC)c1OC	.	-3.0
Cc1cc(NC(=O)c2cccnc2)ccc1NC(=O)c1ccco1	2	2.4
CC(C)(CO)NCc1ccc(F)cc1	8	.
COc1ccccc1/C=C/C(=O)N1CCC(C(N)=O)CC1	3	-0.2
Cc1ccc2ccccc2c1COC(=O)c1nonc1N	8	1.8
CCn1c(COc2ccc(Cl)c3cccnc23)nnc1SC	22	.
C/C(N)=N/S(=O)(=O)c1cc(Cl)c(Oc2ccc([N+](=O)[O-])cc2)c(Cl)c1	.	3.2
CCCn1c(C)cc(C(=O)CSc2nc(O)cc(=O)n2C2CCCC2)c1C	-5	.
CC1(C)CC2(CCO1)NNC(=S)NN2	8	-0.7

SMILES	S aureus helic	MgrA-DNA mod
O=S(=O)(c1ccc(F)cc1)N1C=CC(C(F)(F)F)=NCC1	.	2.0
O=C(Nc1ccc2c(c1)OCCO2)c1cccc(-n2cnnc2)c1	21	0.4
O=C(CCCC1CCCCC1)Nc1ccncc1	11	.
O=C(Cn1c(=O)oc2cc(S(=O)(=O)NCc3ccccc3)ccc21)Nc1ccc(F)cc1	-5	3.3
CCc1ccc(OCC(=O)Nc2ccc3c(c2)COC3=O)cc1	-1	1.4
CCOC(=O)N1CCN(C(=O)C2COc3ccccc3O2)CC1 (stereo unspecified)	5	-0.5
CCOC(=O)c1cc(-c2ccc(S(=O)(=O)N3CCCCC3C)s2)on1 (stereo unspecified)	-5	.
N#Cc1c(-c2ccccc2)nc2n(c1=O)CCCS2	-6	.
Cc1ccc(C2CCN(C(=S)NCC3CCCO3)C2)cc1 (stereo unspecified)	0	1.9
COc1cccc(CN(Cc2ccco2)S(=O)(=O)c2ccccc2)c1	9	.
CC1=C(C(=O)NCCC(C)C)C2(CCN(S(=O)(=O)c3cccs3)CC2)OC1=O	1	.
CSc1cc(C)nc2ccccc12	.	-1.0
CCCCn1nnc2sc(-c3ccccc3)cc2c1=O	-43	.
CC(C)(C)c1cc(O)c(C(C)(C)C)cc1O	.	3.2
O=c1[nH]c(CSc2ccccn2)nc2ccsc12	-16	.

# Rewritten with two lines to a compound: entries from further up
# Screens in order – S aureus helic | MgrA-DNA mod
c1ccc(OCCn2c(CN3CCCCC3)nc3ccccc32)cc1
  20 | .
O=C(Nc1ccc2nc(N3CCOCC3)sc2c1)c1cncn1-c1ccccc1
  4 | .
NC1=NC(=O)C(CC(=O)Nc2ccccc2SC(F)(F)F)S1 (stereo unspecified)
  -34 | .

# Next part:
SMILES	S aureus helic	MgrA-DNA mod
O=C1c2ccccc2S(=O)(=O)c2cc(C(=O)N3CCN(c4ccccc4)CC3)ccc21	-9	.
CC(C)CCN1NC(C)(C)NC1=S	14	0.9
O=C(CSc1nc2ccccc2c(=O)n1C1CCCC1)Nc1cccnc1Cl	-5	.
CCOC(=O)C1=C(C)NC2=C(C(=O)CCC2)C1c1ccccc1 (stereo unspecified)	8	.
CC1N(C)c2cc(NC(=O)c3ccco3)ccc2C1(C)C (stereo unspecified)	-22	2.0
CN(CCO)C(=O)c1cc(-c2ccc(Cl)cc2)nc2ccccc12	-6	-0.6
COC(=O)CCCNc1ccc(C(F)(F)F)cc1N	.	-0.1
O=C1C2C3C=CC(C3)C2C(=O)N1c1cccc(N2C(=O)C3C4C=CC(C4)C3C2=O)c1 (stereo unspecified)	3	.
O=C(Nc1ccc(Cl)cc1)c1ncoc1-c1cccs1	4	.
O=C(NCc1cccnc1)/C(=C\c1cccc(Oc2ccccc2)c1)S(=O)(=O)c1ccccc1	17	-1.2
CC(C)n1c(CN(C)Cc2ccccc2)nc2ccccc21	-8	-1.2
Cc1ccc(/C=C2\CCCc3ccccc3C2=O)o1	-17	.
N#CCCn1ccc2ccccc21	-3	.
Cc1ccc2nc(Cl)c3cc(C(=O)N=C4NC(=O)CN4C)sc3c2c1	-1	-0.4
CC(C)(O)C#Cc1ccc(C(=O)NCc2cccs2)s1	-11	-0.6

SMILES	S aureus helic	MgrA-DNA mod
O=C(O)C(c1cccs1)c1cccs1	3	-2.0
Fc1ccc(C=Nc2ccc(Nc3ccccc3)cc2)cc1F	4	-0.2
OC(COc1ccc(F)cc1)(c1ccc(Cl)cc1)c1ccc(Cl)cc1	.	-0.3
Cc1ccc(NC(=O)CCn2nnc(-c3ccc(OCc4ccccc4F)cc3)n2)cc1C	3	-1.6
Cc1ccccc1NC(=O)C1CCN(C(=O)c2cc3sccc3n2Cc2ccc(F)cc2)CC1	15	0.0
OCc1ccnc(Cl)c1	16	.
O=S1(=O)N=C(N(Cc2ccco2)c2ccc(O)cc2)c2ccccc21	0	3.9
N#CC(C#N)=Cc1ccc(/C=C(\C#N)S(=O)(=O)c2ccccn2)cc1	-29	.
Cc1ccc(NC(=O)CSc2ncnc3ccccc23)cc1C	-11	-2.2
Cn1c(C(=O)O)c(CC(=O)O)c2ccccc21	-18	.
CN(C)c1ccc(/C=N/NC(=O)CNc2ccc(Br)cc2)cc1	-34	.
N=c1c2c(F)cccc2ncn1NC(=O)c1ccncc1	-6	.
Cc1ccc(S(=O)(=O)c2[nH]nc3ccc(Cl)cc23)cc1	-1	2.0
Cn1c(=NC(=O)c2cccc3ccccc23)sc2cc(S(C)(=O)=O)ccc21	18	.
CCOC(=O)c1c(C)[nH]c(NC(=O)Nc2nnc(CC)s2)c1C	-3	-1.4

SMILES	S aureus helic	MgrA-DNA mod
Cc1cccc(NC(=O)C(NS(=O)(=O)c2cccs2)C(C)C)c1C (stereo unspecified)	2	-0.3
O=C(NCc1ccccc1)c1cc[n+]([O-])cc1	-23&21	.
Cc1ccc(N(CC(=O)NC2CCCC2)C(=O)c2ccc(N3CCCC3)nc2)cc1	16	-1.3
N=c1c(C(=O)NC2CCCCC2)cc2c(=O)n3ccccc3nc2n1Cc1cccnc1	12	2.8
CCc1ccc(NC(=O)c2cc3c(=O)[nH]c4ccccc4c3n2C)cc1	10	0.0
CC(O)/C=C/c1ccncc1 (stereo unspecified)	5	-2.5
O=C(NCC(=O)N1CCSc2ccccc21)c1ccccc1F	-10	.
COc1ccc(CCNc2nc3ccccc3s2)cc1OC	-11	.
COc1ccc2cc3cc(C(=O)NCCC(C)C)sc3nc2c1	10	-6.2
CC(C)C(=O)Nc1ccc(-c2nc3ccccc3[nH]2)cc1	-7	.
Cc1nc(C(F)(F)F)nc(Sc2ccccc2Cl)c1Oc1ccccc1	.	4.8
CC(C#N)OC(=O)/C=C/c1ccc2ccccc2n1 (stereo unspecified)	-12	.
COCCN1Cc2cccc(C(=O)NCc3ccco3)c2C1=O	-9	.
N#C/C(=C\Nc1ccc2c(c1)C(=O)OC2)C(=O)c1ccccc1	-27	.
CCCc1ncc(C(=O)c2ccc(OC)cc2)n1C	8	-1.4
CCN(CC)S(=O)(=O)c1cc(-c2cc(C(=O)NC3CC3)no2)ccc1OC	5	.
COc1ccc(-c2cc(-c3ccccc3O)nc(NC(N)=S)n2)cc1	-2	1.1
CCc1c(O)nc(SCC(=O)NCc2ccco2)n(-c2ccccc2)c1=O	15	.
